# B2AR ag = agonists of human beta-2 adrenergic receptor inducing internalization; P07550; Am2.2-beta2AR cells, FAP receptor internalization, flow cytometry; reference of the scale not given here; response, % (concentration not given with the values); actives 0.43% (n = 340,000);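 active = response above a set limit, near 3 SD of response in nonfluorescent compounds, cut at about 42% in these data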;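 also: stock transfer was 100 nL into about 11 µL; a reference agonist was the positive control; negative values mostly stem from fluorescent compounds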
# LANA-H2B inh = blocks KSHV LANA binding to histone H2A/H2B | Q9QR71 | cell-free LANA-H2A/H2B peptide, fluorescence polarization | inhibition, % (no concentration beside the values) | actives 0.6% (n = 320,000); in the data active = inhibition mostly above about 10%, no sharp cut-off; inactive = mostly below about 6.7%;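 also: stock transfer was 7.5 nL into about 10 µL; 0% = median of vehicle wells and 100% = median of positive control wells; one replicate is shown; the record names a cut of 25% in any replicate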
# Target sequence (Q9QR71 whole entry, looked up): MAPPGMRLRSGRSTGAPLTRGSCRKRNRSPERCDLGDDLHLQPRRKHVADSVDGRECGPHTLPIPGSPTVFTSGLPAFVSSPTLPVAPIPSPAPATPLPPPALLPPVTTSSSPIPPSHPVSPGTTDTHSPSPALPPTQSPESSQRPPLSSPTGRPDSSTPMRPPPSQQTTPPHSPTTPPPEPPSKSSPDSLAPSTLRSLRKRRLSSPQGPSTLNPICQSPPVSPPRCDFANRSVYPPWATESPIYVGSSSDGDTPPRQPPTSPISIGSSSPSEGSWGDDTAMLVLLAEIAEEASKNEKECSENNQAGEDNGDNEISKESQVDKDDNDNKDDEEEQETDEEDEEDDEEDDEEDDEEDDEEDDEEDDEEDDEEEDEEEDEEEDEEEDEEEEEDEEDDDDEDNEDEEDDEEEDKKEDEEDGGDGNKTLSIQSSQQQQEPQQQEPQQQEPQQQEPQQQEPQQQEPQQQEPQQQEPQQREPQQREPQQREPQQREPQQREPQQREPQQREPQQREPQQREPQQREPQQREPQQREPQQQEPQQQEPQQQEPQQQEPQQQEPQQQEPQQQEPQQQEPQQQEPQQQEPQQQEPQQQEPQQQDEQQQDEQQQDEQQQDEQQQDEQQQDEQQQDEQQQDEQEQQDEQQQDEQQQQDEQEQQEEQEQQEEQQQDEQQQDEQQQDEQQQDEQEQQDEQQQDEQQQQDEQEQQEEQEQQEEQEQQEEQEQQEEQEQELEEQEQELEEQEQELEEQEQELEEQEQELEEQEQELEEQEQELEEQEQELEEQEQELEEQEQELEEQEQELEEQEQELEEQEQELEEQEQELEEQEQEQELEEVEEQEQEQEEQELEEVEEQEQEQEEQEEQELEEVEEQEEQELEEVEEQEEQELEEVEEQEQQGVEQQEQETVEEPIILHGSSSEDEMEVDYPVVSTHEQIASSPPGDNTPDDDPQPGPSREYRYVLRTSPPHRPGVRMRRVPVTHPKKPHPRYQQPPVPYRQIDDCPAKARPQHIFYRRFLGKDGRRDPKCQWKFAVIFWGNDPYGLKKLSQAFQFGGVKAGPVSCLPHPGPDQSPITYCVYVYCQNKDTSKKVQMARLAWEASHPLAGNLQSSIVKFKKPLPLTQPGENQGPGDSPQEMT
# Ecoli growth = inhibitors of Escherichia coli growth. OD600, 23 h; stronger effect = lower value. OD600 absorbance (concentration not given with the values). actives 0.21% (n = 330,000). AID 1053175;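 active = OD600 absorbance below the run mean of sample wells minus 3.6 SD, in any replicate, cut at about 0.56 in these data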;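 also: stock transfer was 300 nL into about 60 µL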
# FGF22 binding = FGF22 (human) thermal shift binding; Q9HCT0; recombinant FGF22 thermal shift, SYPRO orange fluorescence; percent of sucrose octasulfate shift, DMSO zero; calls only at 9.99 µM; actives 1.5% (n = 340,000); AID 651658;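 active = melting point raised past a set limit in the mean and every replicate; inconclusive = no clear call; three in four hits are not shown here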
# UCH37 DUB inh = inhibitors of human deubiquitinating enzyme UCH37 | Q9Y5K5 | purified proteasome/UCH37, Ub-AMC cleavage fluorescence | inhibition, % (no concentration beside the values) | actives 0.33% (n = 330,000);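 active = mean of two replicates above 20%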;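 also: 0% = compound-free wells with enzyme and 100% = wells lacking proteasome; stock transfer was 100 nL into about 20 µL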
#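 Assay system: Proteasome-bound UCH37. Buffer or medium: pH 7.4 Tris-HCl (50 mM) with ovalbumin, ATP-MgCl2, DTT. Incubation: 30 min preincubation with enzyme, 25 min cleavage at room temperature. Measured by: fluorescence, ex 355 nm, em 460 nm. Read-out basis: percent inhibition. Control set: wells without proteasome as full block, compound-free enzyme plus substrate as uninhibited.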
# HNF4A DNA FP = change in binding of human HNF4 alpha to DNA | P41235 | HNF4a-FITC DNA binding, fluorescence polarization, 1 h | activity change, % at 10 µM | actives 0.3% (n = 360,000) | AID 1224865; in the data active = activity change above about 30%, passing the limit was not always enough;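 also: controls were the assay level and a saturating level of protein; the project sought stronger binding though the title names inhibitors; some compounds called inactive have numbers as strong as hits; positive values seem to mean higher polarization but the record does not say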
# ALR H2O2 inh = inhibitors of human sulfhydryl oxidase ALR; purified ALR, DTT oxidation, H2O2 HRP-luminol luminescence; inhibition, % (concentration not given with the values); actives 3.8% (n = 290,000); AID 485317;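 active = mean and each replicate at 75% or more; inconclusive = only one of the two met; inactive = neither met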;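 also: stock transfer was 7.5 nL into about 7.5 µL; 0% = neutral wells and 100% = wells with inactivated enzyme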
# Numbers without * were called inactive; i = inactive; ? = inconclusive; / = no result given.
SMILES,B2AR ag,LANA-H2B inh,Ecoli growth,FGF22 binding,UCH37 DUB inh,HNF4A DNA FP,ALR H2O2 inh
Cc1cc2oc(=O)cc(CN3CCc4ccccc43)c2cc1Cl,-6,2.7,0.69,/,4.9,4.2,-13
Cc1ccc(=O)n(C(C(=O)NCc2ccco2)C(=O)c2ccc(F)cc2)c1 (stereo unspecified),0,0.5,0.69,/,4.6,1.1,1
CCOC(=O)CCNC(=O)N1CCCC(C(=O)c2cccc(Cl)c2)C1 (stereo unspecified),7,0.9,0.71,i,0.5,-0.4,5
Cc1ccc(Nc2cc(C)nn2-c2nc(C)cc(C)n2)cc1,-3,-0.3,0.7,/,3.6,0.8,14
COc1cccc(C(=O)NCCS(=O)(=O)NCCc2ccccc2)c1,-1,0.3,/,i,/,2.9,-10
O=C(C1CCCCC1)N1CCC(c2nc3c(nnn3Cc3c(F)cccc3Cl)c(=O)[nH]2)CC1,-5,1.1,0.69,/,1.8,1.6,-4
CCOC(=O)N1CCN(C(=O)C2CCN(C(=O)c3ccc([N+](=O)[O-])cc3)CC2)CC1,-5,-5.8,0.68,i,2.0,0.7,-5
COc1ccc(Cl)cc1NC(=O)c1[nH]c(C)c(C(C)=O)c1C,-11,-2.1,/,i,/,-0.3,-1
COc1nc(OC)nc(N2CCC(C(=O)NCc3ccco3)CC2)n1,1,0.3,0.73,/,3.2,1.2,-11
CCOC(=O)Cc1nc2nc(C)cc(C)n2n1,0,1.4,0.6,i,-0.9,0.1,1
CCCc1cc(=O)oc2c3c(cc(OCC(=O)NCc4ccccn4)c12)OC(C)(C)CC3,1,1.9,0.7,i,-457,4.1,-6
Cc1ccc(C)c(N2C(=O)CC(Cc3ccccc3)C2=O)c1 (stereo unspecified),-8,4.7,0.71,i,6.5,0.5,3
COC(=O)c1c(-c2cccc(OC)c2)csc1N,1,-9.0,0.75,i,1.7,-3.1,/
O=C(NCCC1=CCCCC1)c1cc(COc2ccc(F)cc2Cl)on1,6,4.2,0.69,i,7.2,-2.8,0
Cc1cc(C)c2c(N)c(C(=O)NCc3ccco3)sc2n1,8,6.9,0.75,/,-31,0.6,14
Cc1nnc(SCc2nc3sc4c(c3c(=O)[nH]2)CCCC4)[nH]c1=O,2,2.6,0.72,i,2.0,18,98*
c1ccc(Cn2c(-c3ccccc3)c[n+]3c2SCCC3)cc1,-4,-0.7,0.71,i,5.8,-1.2,-7
O=C(COc1nsnc1N1CCOCC1)N/N=C/c1ccccc1O,-8,/,/,i,/,-0.8,/
O=C(NC1CCCCC1)C(c1ccc2ncccc2c1)N(Cc1ccc2c(c1)OCO2)C(=O)c1cccs1 (stereo unspecified),-5,0.7,0.71,/,2.0,0.4,-9
Cc1onc(-c2c(F)cccc2Cl)c1C(=O)NCc1ccco1,-4,-4.0,0.74,/,-1.1,-0.9,0
O=C(N/N=C(\c1ccccc1)c1ccccn1)c1cccc([N+](=O)[O-])c1,8,-0.2,/,/,/,5.5,7
COc1ccc(Br)cc1CN1CCN(C(=O)c2cccc(OC)c2OC)CC1,5,-0.3,0.73,i,4.3,-3.4,-19
COc1ccc(CN2C(=NC(=O)CCc3ccccc3)SC3CS(=O)(=O)CC32)cc1 (stereo unspecified),6,0.4,0.71,i,2.5,-7.0,-1
COCc1nnc(SCC(=O)NC(C)c2ccccc2)n1-c1ccccc1 (stereo unspecified),2,3.1,0.67,/,6.3,1.2,-3
O=C(C[n+]1ccccc1)N/N=C/c1cc(Br)cc(Br)c1O,5,-3.6,/,/,/,2.2,61

# Next part
SMILES,B2AR ag,LANA-H2B inh,Ecoli growth,FGF22 binding,UCH37 DUB inh,HNF4A DNA FP,ALR H2O2 inh
Cc1cnc(C(=O)OCc2nc3ccsc3c(=O)[nH]2)cn1,18,-3.1,0.62,i,-1.7,-15,-6
CNC(=O)c1c(NC(=O)c2ccc(S(=O)(=O)N(C)c3ccccc3)cc2)sc2c1CCN(C(C)C)C2,/,-1.1,0.67,i,6.3,/,-14
Cc1ccc(C)c(OCC(=O)NCCNC(=O)COc2cc(C)ccc2C)c1,-4,-1.3,0.7,/,1.2,3.5,-1
COc1ccc(C)cc1NC(=O)C1CCN(S(=O)(=O)c2ccc3c(c2)C(C)(C)C(=O)N3C)CC1,-2,-1.2,0.72,i,1.7,1.3,-6
O=C/C(=C\Nc1ccccn1)c1nc2cc(Cl)ccc2o1,-22,2.8,0.68,/,0.2,8.3,-24
O=C(Cc1ccccc1)NC(Nc1cccc2ccccc12)C(Cl)(Cl)Cl (stereo unspecified),0,-1.1,0.77,/,1.7,1.5,-6
CC/C(O)=C1\C(=O)CC(c2ccccc2)CC1=NCCc1c(C)[nH]c2ccc(C)cc12 (stereo unspecified),0,-1.7,0.8,i,1.8,-2.9,-4
NC(=O)CCN1CCN(C(=O)c2ccc3nc(Cc4cccc(Cl)c4)oc3c2)CC1,1,-0.1,0.7,i,0.7,-5.3,-5
C=CCSc1n[nH]c(=O)n1-c1cccc(C(F)(F)F)c1,-3,17,0.7,i,4.9,5.1,-2
C=CCn1c(SCC(=O)Nc2nnc(CC)s2)nnc1-c1ccncc1,3,-6.9,0.69,i,-1.4,-1.0,-5
Cc1cc(-c2nnc3sc(-c4ccc(Cl)cc4Cl)nn23)n[nH]1,-11,-3.5,0.78,/,-0.2,0.5,-2
Cc1cccc(N2CCN(C(=O)C3(S(=O)(=O)c4ccc(Cl)cc4)CC3)CC2)c1C,-3,-2.8,0.7,i,2.4,-3.5,0
Cn1c(CNC(=O)c2ccc(F)cc2)nc2ccccc21,-15,-2.2,0.68,i,3.3,-0.5,-21
CCn1cc(C(=O)NCCC(=O)NCCCO)c(=O)c2cc3c(cc21)OCO3,-7,-5.5,0.68,i,-4.2,2.8,0
O=c1[nH]c(C2CCN(S(=O)(=O)c3cccc(C(F)(F)F)c3)CC2)nc2c1nnn2Cc1cccc(F)c1,-4,-3.3,0.67,i,3.3,-1.3,-2
CCOC(=O)N1CCN(C(=S)Nc2cccc(C)c2)CC1,-10,5.4,0.72,/,5.0,0.5,-8
Cc1ccc(NS(=O)(=O)c2csc(C(N)=O)c2)cc1C,2,-1.3,0.69,i,0.3,-2.3,2
Cc1cc(CN2CCCCC2)oc1C(=O)O,-5,-5.1,0.71,i,4.5,0.2,-4
O=S(=O)(c1ccc(F)cc1)N1CCN(Cc2cc3c(cc2Br)OCCO3)CC1,-1,-273,0.68,i,3.7,-0.1,-2
Cc1ccc(C(=O)OCC(=O)Nc2sc3c(c2C#N)CCCC3)cc1NC(=O)c1ccco1,-4,1.7,0.73,/,0.3,1.9,-1
c1ccc2c(c1)CCCN2Cc1nnnn1C1CCCC1,-4,4.8,0.7,/,-2.1,5.4,-25
O=C(COC(=O)c1ccc(OC(F)F)cc1)Nc1cccc(S(=O)(=O)NC2=NCCC2)c1,4,8.3,0.69,i,3.7,10,-4
COc1ccccc1CC(=O)Nc1ccc(S(=O)(=O)N(C)C2CCN(C)CC2)cc1,1,0.2,0.68,i,0.6,1.9,/
CC(Oc1cccc2cccnc12)C(=O)N/N=C/c1ccccc1 (stereo unspecified),-4,0.4,/,i,/,0.3,24
CCOc1ccc(OCCC(=O)OC(C)C(=O)Nc2ccc(Cl)cn2)cc1 (stereo unspecified),2,/,0.68,i,-4.8,2.2,/

# Other structures follow:
SMILES,B2AR ag,LANA-H2B inh,Ecoli growth,FGF22 binding,UCH37 DUB inh,HNF4A DNA FP,ALR H2O2 inh
CCCNc1nc2c(c(=O)n(C)c(=O)n2C)n1Cc1ccc(F)cc1,2,-1.2,0.69,i,5.8,1.8,15
CCOCCn1c(CC)nc2ccccc21,-3,-1.4,0.67,i,2.5,1.0,17
C#CCOCCOCCOCCNc1nc(N2CCN(C(=O)[C@H](CO)n3cc([C@@H](N)C(C)C)nn3)CC2)nc(N2CCN(C(=O)[C@H](CCC(=O)O)n3cc([C@@H](N)[C@H](C)CC)nn3)CC2)n1,0,2.3,0.68,i,4.0,-0.8,/
COc1ccc(C(=O)Cc2cc(OC)c(OC)cc2[N+](=O)[O-])c(OC)c1,-3,-2.9,0.66,i,1.5,1.5,-2
O=C(NCCO)C(=O)Nc1cc2c3c(c1)CCN3C(=O)CC2,0,0.6,0.71,i,3.2,2.8,/
COc1cc2c(c(OC)c1OC)C(=O)CC2,-4,3.4,0.66,i,3.5,-1.7,-3
CC(=O)c1cc2c(cc1NC(=O)CSc1nc3ccccc3o1)OCO2,3,-2.7,0.75,/,-7.6,-3.2,-2
Cc1csc(NC(=O)CN2C(=O)c3ccccc3S2(=O)=O)n1,4,0.9,0.61,i,-0.1,-2.0,-1
NNC(=O)c1oc2nc(-c3ccc(Cl)cc3)cc(-c3ccccc3)c2c1N,-13,-1.5,0.7,i,-7.7,8.1,-6
Cc1noc(C)c1COc1ccc(C(=O)N2CCN(S(=O)(=O)c3ccc(F)cc3)CC2)cc1,-8,/,0.66,i,-0.4,-4.8,/
Cc1cccc(CCNC(=O)C2CCC(CNS(=O)(=O)c3cccs3)CC2)c1 (stereo unspecified),4,2.9,0.74,/,-1.3,-0.4,-10
Nc1ccc(Nc2ccccc2N)cc1,-12,-0.9,0.73,/,-2.5,-28,-20
COc1ccc(C(=O)NC(=S)Nc2ccc(CN3CCOCC3)cc2)cc1OC,1,-2.4,0.63,i,2.5,-3.4,6
O=C(NC(Cc1ccccc1)C(=O)O)/C(=C/c1ccc([N+](=O)[O-])cc1)NC(=O)c1ccccc1Br (stereo unspecified),-1,-2.6,0.63,i,5.9,-2.1,?
Cc1c(C)n2c(SCC(=O)N3CCCCC3)nnc2[nH]c1=O,-3,-8.1,0.64,i,2.3,-0.8,0
N#Cc1c(NC(=O)C2CC(c3c(F)cccc3Cl)=NO2)sc2c1CCC2 (stereo unspecified),-4,-0.5,0.67,/,3.6,1.6,-9
CC1CCCN(CCC(=O)c2ccc(Br)cc2)C1 (stereo unspecified),-6,-0.4,0.71,/,2.2,2.5,99*
COCc1n[nH]c(=S)n1-c1ccccc1,5,1.5,0.67,/,1.6,-0.8,58
COc1cccc(C(=O)OCCCN(C)C)c1,10,0.2,0.71,i,5.3,0.0,-5
O=C(CN(Cc1ccc(F)cc1)C(=O)CNS(=O)(=O)c1ccc(F)cc1)NCC1CCCO1 (stereo unspecified),-4,0.4,0.68,i,-1.8,-1.0,-4
Cc1ccc(NC(=S)NCCN(C2CCCCC2)C2CCCC2)cc1C,16,9.0,0.62,i,1.1,1.7,-2
CNC(=O)C1CC(=O)N(CCc2ccc(OC)cc2)C(=Nc2ccc(OC)cc2)S1 (stereo unspecified),-12,2.3,0.71,/,3.6,1.2,/
COC(=O)C1(C)CCC(C(=O)Nc2ccccc2)C1(C)C (stereo unspecified),1,3.7,0.65,i,5.1,-1.1,-6
CN(CC(=O)Nc1ccc(Cl)c(C(F)(F)F)c1)C(=O)Cc1n[nH]c(=O)c2ccccc12,5,2.2,0.65,i,1.7,-0.8,-5
O=C1C2CC=CCC2C(=O)N1c1ccc(OCC(O)Cn2nnc3ccccc32)cc1 (stereo unspecified),-7,0.2,0.71,/,3.0,4.5,-4
COc1cc(N2CN=c3s/c(=C\c4ccccn4)c(=O)n3C2)cc(OC)c1OC,-11,1.6,/,/,/,6.8,62
O=C(Nc1cccc(-c2cnc3ccccc3n2)c1)c1ccccc1,-4,-3.0,0.75,/,3.7,0.5,-2

# 4 entries drawn at random from those above, as already listed:
SMILES,B2AR ag,LANA-H2B inh,Ecoli growth,FGF22 binding,UCH37 DUB inh,HNF4A DNA FP,ALR H2O2 inh
O=C(Nc1cccc(-c2cnc3ccccc3n2)c1)c1ccccc1,-4,-3.0,0.75,/,3.7,0.5,-2
Cc1ccc(NC(=S)NCCN(C2CCCCC2)C2CCCC2)cc1C,16,9.0,0.62,i,1.1,1.7,-2
Cc1noc(C)c1COc1ccc(C(=O)N2CCN(S(=O)(=O)c3ccc(F)cc3)CC2)cc1,-8,/,0.66,i,-0.4,-4.8,/
COc1cc2c(c(OC)c1OC)C(=O)CC2,-4,3.4,0.66,i,3.5,-1.7,-3

# Screening results (PubChem)

# An excerpt; the hit share may differ from the screen's.
